# TDP1 block – inhibitors of human tyrosyl-DNA phosphodiesterase TDP1; Q9NUW8; recombinant TDP1, AlphaScreen DNA substrate cleavage; Potency, µM (titrated, usually from 130 µM), without a hit: top-dose activity change, negative = inhibition, usual class: inhibitors; hit rate 0.28% among 350,000; AID 485290; note: nearly all actives have a fitted effect of over 40% in size
# Target sequence (Q9NUW8 whole entry, looked up): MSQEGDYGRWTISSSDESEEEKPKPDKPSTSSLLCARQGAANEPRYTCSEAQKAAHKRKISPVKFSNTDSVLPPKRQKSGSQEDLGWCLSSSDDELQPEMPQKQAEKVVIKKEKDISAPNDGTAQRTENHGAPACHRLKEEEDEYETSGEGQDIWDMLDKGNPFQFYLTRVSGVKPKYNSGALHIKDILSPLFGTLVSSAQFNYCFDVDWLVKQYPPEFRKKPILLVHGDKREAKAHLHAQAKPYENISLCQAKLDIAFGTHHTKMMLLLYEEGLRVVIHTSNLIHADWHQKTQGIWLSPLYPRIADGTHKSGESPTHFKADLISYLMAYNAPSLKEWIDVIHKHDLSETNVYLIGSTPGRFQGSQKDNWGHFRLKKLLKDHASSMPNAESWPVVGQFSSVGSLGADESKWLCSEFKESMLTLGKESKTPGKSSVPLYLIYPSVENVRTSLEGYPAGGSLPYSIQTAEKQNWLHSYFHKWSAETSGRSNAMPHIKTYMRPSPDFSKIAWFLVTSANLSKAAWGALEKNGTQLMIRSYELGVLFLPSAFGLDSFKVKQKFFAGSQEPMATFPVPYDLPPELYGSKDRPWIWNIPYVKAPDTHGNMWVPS
#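 Compounds were preincubated with Tdp1 (1 nM final) for 15 min at room temperature before substrate (15 nM final) started a 5 min reaction; beads (10 ug/ml final) were then added for 10 min before AlphaScreen detection.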
# N370S GC – N370S glucocerebrosidase modulation, Gaucher chaperone candidate; hit rate 0.092% among 330,000; N370S GC spleen homogenate, 4MU-glucoside fluorescence; Potency, µM (highest dose often 59.4 µM), inactives show at the top dose activity change, negative = inhibition, hits mostly inhibitors;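 note: 0% = full enzyme activity and -100% = no enzyme basal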
# An asterisk follows results filed as active; ? = inconclusive; nt = not tested or not shown; & = joins results of further samples; [ ] = remark or other dose. Calls come from the whole dose curve; as a rule, active = well fitted curve in the direction sought with a large enough effect; inconclusive = small, poorly fitted or top-dose-only effect, or another doubt; inactive = no such curve, though single readings can be large; an effect the other way counts as inactive or inconclusive. Unless noted, % is set by controls: 0 for no effect and ±100 for the full control effect; potency is the fitted concentration of half-maximal effect. An excerpt, and most or all hits are left out here.
SMILES,TDP1 block,N370S GC
CCN(CC(=O)NC(=O)NC1CCCC1)Cc1ccccc1,0%,1%
CC(C)N(C(=O)CSc1nnc(CNc2ccc(F)cc2)o1)C(C)C,-2%,17%
Cc1cc(C)cc(Nc2ncc3c(n2)CCCC3=O)c1,-2%,1%
CCOC(=O)N1CCC2(CC1)C(C#N)=C(N)OC1=C2C(=O)CC(C)C1 (centres undefined),-1%,6%
CC1CC(=O)c2cnc(Nc3ccccc3)nc2C1 (centres undefined),1%,1%
COCCCNC(=O)C(=O)N/N=C/c1cc2c(cc1Br)OCO2,1%,-1%
COc1ccc(CNC(=O)c2sccc2C)cc1,0%,-1%
CCN(CCO)C(=O)c1ccc2oc(Cc3ccc(Cl)cc3)nc2c1,nt,-8%
O=[N+]([O-])c1cc([N+](=O)[O-])c2n[nH]c(-c3ccccc3)c2c1,nt,0%
O=C(NCc1ccco1)C1CC(c2ccccc2C(F)(F)F)=NO1 (centres undefined),1%,-16%
COc1ccc(Cn2c(O)c(C=Nc3ccccc3)c3ccccc3c2=O)cc1,0%,15%
Cc1ccc(S(=O)(=O)N2CCN(C(=O)c3ccccc3OCc3c(C)noc3C)CC2)cc1C,-2%,-5%
O=C(CN1C(=O)NC2(CCCC2)C1=O)Nc1nc2ccccc2[nH]1,1%,-19%
CC1(C)Cc2ccccc2C(NNC(=O)c2ccncc2)=N1,4%,4%
CS(=O)(=O)Nc1ccccc1C(=O)Nc1ccccc1C(=O)N1CCCC1,0%,-1%
Cc1cccc(OCCC(=O)Nc2ccc(F)c(Cl)c2)c1,-5%,4%
CCC(C)(C)NC(=O)c1cccc(NC(=O)C(C)C)c1,nt,3%
O=C(O)CC(c1cccc(Cl)c1)n1cccc1 (centres undefined),5%,-14%
Cc1cc2cc(CNC(=O)c3ccc(S(=O)(=O)N4CCCCC4)cc3)ccc2n1C,-7%,24%
CC(Oc1ccc(Cl)cc1Cl)C(=O)Nc1ccc(OCC(=O)O)cc1 (centres undefined),3%,-7%
COc1ccc(-n2c(-c3ccccc3)cc3c2CCCC3=O)cc1,-4%,5%
Cc1ccc2cc(/C=C3\N=C(c4ccccc4)OC3=O)c(N3CCOCC3)nc2c1,2%,4%
CSc1nc(O)c(Cc2ccccc2)c(=O)[nH]1,4%,7%
COc1ccc(OCCC(=O)Nc2nccs2)cc1,4%,-17%
CN(C(=O)CC1C(=O)NCCN1Cc1ccc(F)c(F)c1)C1CCOCC1 (centres undefined),-2%,1%

# New compounds follow.
SMILES,TDP1 block,N370S GC
O=C1c2cccc([N+](=O)[O-])c2C(=O)N1c1cccnc1,5%,-4%
N#CCCN(C(=O)COC(=O)c1nc(Cl)ccc1Cl)c1ccccc1,-11%[0.505 µM],1%
O=C1N(Cc2cccc(Cl)c2)C[C@@H]2C[C@@H](c3ccc4nonc4c3)N3CCC[C@@]123,-3%,22%
S=C(NCCc1ccccc1)NC1CC1,0%,3%
O=C(NN1CCN(Cc2ccccc2)CC1)c1ccc(N2CCOCC2)c([N+](=O)[O-])c1,2%,10%
O=C(Nc1ccccc1Cl)N1CCSc2ccccc21,3%&5%,-1%
Cc1ccc(CN2C(=O)C(C)Oc3ccccc32)cc1 (centres undefined),-3%,-9%
Cc1ccc(OCC(=O)Nc2nnc(C3CCCO3)s2)c(Br)c1 (centres undefined),7%,12%
O=C(/C=C\Nc1ccc2c(c1)OCO2)c1ccc2c(c1)OCO2,4%,5%
CS(=O)(=O)Nc1ccc(C2=NN(S(=O)(=O)c3ccccc3)C(c3cccs3)C2)cc1 (centres undefined),3%,-11%
COc1ccc(OC)c([C@@H]2OCCC=C[C@H]2C)c1,-3%,-11%
O=C1N=C(N2CCCC2)CN1c1ccccc1,5%,7%
CCOC(=O)Cc1csc(NC(=O)CSc2nnnn2-c2ccc(C)c(C)c2)n1,-4%,7%
COc1ccc(C(=O)NCc2nnc(SCC(=O)Nc3ccccc3F)o2)cc1,5%,1%
Nn1c(SC/C=C/c2ccccc2)nnc1-c1ccco1,4%,0%
CCOC(=O)Cc1csc(NC(=O)CSc2ncnc3c2cnn3-c2ccccc2Cl)n1,4%,4%
Cc1ccc(-n2ccc(=O)c(C(=O)Nc3ccc(S(=O)(=O)Nc4nccs4)cc3)n2)cc1,1%,-19%
C=CCOc1ccccc1OCC(O)CNC(C)C (centres undefined),nt,0%
Cn1nnnc1SCC(=O)N1CCN(c2ccccc2)CC1,8%,0%
CCOc1ccc2oc(=O)cc(CN3CCOCC3)c2c1,nt,1%
Cc1cccc(OC(C)C(=O)N2CCCc3ccccc32)c1 (centres undefined),4%,-4%
COc1nc(N(CC(N)=O)S(=O)(=O)c2ccccc2)nc(C)c1Cl,7%,5%
CCN(CC)S(=O)(=O)c1ccc2c(c1)N(CC(=O)NCC(C)c1ccccc1)C(=O)CO2 (centres undefined),5%,nt
O=C1C(=O)N(Cc2cccnc2)C(c2cccc(O)c2)/C1=C(\O)c1ccc2c(c1)OCCO2 (centres undefined),6%,-6%
O=C(c1ccc2c(c1)OCO2)N1CCN=C1SCc1ccccc1,-3%,5%

# Other records:
SMILES,TDP1 block,N370S GC
Cc1ccc2cc(C)c(N3CCC(C)CC3)nc2c1,0%,1%
CCCCN1C(=O)NC(NC(=O)c2ccco2)(C(F)(F)F)C1=O (centres undefined),-3%,-2%[12.8 µM]
Cc1c(NC(=O)CN2c3ccccc3CC2C)c(=O)n(-c2ccccc2)n1C (centres undefined),-5%,-7%
COC(=O)c1cn(NC(=O)c2ccccc2[N+](=O)[O-])c(=O)c2ccccc12,4%,0%
Cc1cc(NC(=O)c2ccc(N3C(=O)C4C5C=CC(C5)C4C3=O)cc2)no1 (centres undefined),2%,-1%
COc1ccc(S(=O)(=O)N2CCCCCC2)cc1C(=O)N(C)CC(=O)Nc1ccc(Cl)c(Cl)c1,nt,6%
O=C(O)C1C2C=CC(C2)C1C(=O)NCc1ccco1 (centres undefined),-5%,0%
CC(C)NC(=O)c1cc(-c2ccco2)nn1-c1ccc(Cl)cc1,-2%,21%
Cc1ccc(N2CC(C(=O)Nc3cccc(F)c3)CC2=O)cc1 (centres undefined),2%,10%
O=C(O)C1CCN(C(=O)c2scc3c2OCCO3)CC1,6%,2%
O=C(O)CC/C(=N/NC(=O)c1cccs1)c1ccccc1,3%,-1%
C=CCn1c(SCC(=O)Nc2cc(NC(C)=O)ccc2OC)nnc1-c1ccccn1,7%,3%
CC(C)(C)OC(=O)N1CCC(c2c(C(=O)N3CCN(C(=O)c4ccco4)CC3)cnn2-c2cccc(Cl)c2)CC1,4%&1%,-1%
O=C(Nc1ccc(F)cc1F)C1CCN(S(=O)(=O)c2cccnc2)CC1,-5%,-7%
COC(=O)C(NC(C)=O)(Nc1ccc(Br)cc1)C(=O)OC,4%,-22%
CC(C)c1cc(C(=O)Nc2cc(Cl)ccc2O)no1,-5%,4%
O=C(NCC(=O)N1CCN(c2ccccc2F)CC1)c1ccc(Br)o1,nt,3%
Cc1nn(-c2ccccc2)c(Oc2ccccc2)c1C=O,1%,8%
Cc1cc(C#N)c(C)n1-c1cc(C(F)(F)F)ccc1N1CCOCC1,4%,29%
COc1cccc(C2c3[nH]c4ccccc4c3C[C@H]3C(=O)N(c4ccccc4C(=O)N4CCC[C@H]4C(=O)O)C(=O)N23)c1 (some centres undefined),nt,-17%
CSCCC(NC(=O)c1ccc([N+](=O)[O-])cc1Cl)C(=O)OCC(=O)C12CC3CC(CC(C3)C1)C2 (centres undefined),5%,2%
O=C(O)c1cccc(CN2C(=O)c3ccccc3C2=O)c1,nt,-1%
COc1ccc(-c2cn3c(C)c(C(=O)Nc4cccc(NC(C)=O)c4)sc3n2)cc1,4%,-12%
COc1cc(/C=C/C(=O)NCc2nc3ccccc3[nH]2)cc(OC)c1OC,8%,0%
O=C1CCC(=O)N1CN(Cc1ccco1)CN1C(=O)CCC1=O,0%,-13%

# New compounds follow.
SMILES,TDP1 block,N370S GC
O=C(COC(=O)c1ccc(NS(=O)(=O)c2ccc3c(c2)OCCO3)cc1)NCC1CCCO1 (centres undefined),7%,-1%
CC1CCN(C2CCN(C(=O)c3ccccc3F)CC2)CC1,-1%,19%
O=C(O)CCC(=O)Nc1ccc(NC(=O)c2ccc(Cl)cc2Cl)c(Cl)c1,0%,-6%
CS(=O)(=O)c1ccc(Cl)c(NC(=O)COC(=O)CCCN2C(=O)c3cccc4cccc(c34)C2=O)c1,-1%,25%
COc1ccc(CCC(=O)N2CCCSC2=Nc2ccc(C(C)=O)cc2)cc1,-3%,6%
CN(c1ccc(C(=O)N2CCc3ccccc3C2)cc1)S(C)(=O)=O,-2%,1%
Cc1ccc(C(=O)N2CCN(c3ccccc3F)CC2)cc1S(=O)(=O)N1CCOCC1,3%,5%
COc1cc(CCC(=O)Nc2ccc(C)c(S(=O)(=O)N(C)C)c2)cc(OC)c1OC,4%,-8%
O=C(O)c1cc(S(=O)(=O)Nc2ccccc2C(=O)O)ccc1O,-6%,1%
Cc1ccsc1C(=O)NCCc1ccc(S(N)(=O)=O)cc1,-5%,-10%
O=C(NCc1ccccn1)C(=O)Nc1nc(-c2ccccc2)cs1,nt,8%
O=C(NC1CCS(=O)(=O)C1)/C(=C\c1ccccc1)NC(=O)c1ccccc1 (centres undefined),2%,5%
Cc1cc(-c2nnc3n2CCCCC3)c(C)n1-c1ccccc1,3%&0%,1%
Cc1ccc(-c2nnc(SCc3nc(N)nc(Nc4ccccc4C)n3)n2N)cc1,6%,18%
Cc1cc(=O)oc2c1ccc1ccccc12,nt,30%
CSCCC(NC(=O)c1ccccc1Br)C(=O)N1CCCC(C(F)(F)F)C1 (centres undefined),3%,-12%
O=C(NCc1ccccc1)C1CC2CCCC(C1)C2=O (centres undefined),2%,23%
CC1(C)S[C@H]2[C@@H](NC(=O)C(N)c3ccccc3)C(=O)N2[C@H]1C(=O)O (some centres undefined),?,-4%
O=C(c1ccc(N2CCCCC2)c([N+](=O)[O-])c1)N(Cc1ccccc1)c1ccccn1,5%,23%
O=C(Nc1ccccc1-c1ccccc1)C1CCCN(c2ncccn2)C1 (centres undefined),2%,-1%
C=CCn1c(SCC(=O)c2ccccc2)nnc1-c1ccc2c(c1)OCO2,-2%,-6%
CCCc1ccc(-c2ccc(-c3noc(-c4ccncc4)n3)cc2)nc1,nt,-2%
Cc1nc(NC(=O)c2ccco2)sc1C(=O)O,nt,0%
CC1CCN(S(=O)(=O)c2ccc(S(=O)(=O)NCc3ccccc3)cc2)CC1,4%,6%
O=C1CSC(=Nc2ccc(Cl)cc2)N1Cc1ccco1,nt,-20%

# (listing goes on)
SMILES,TDP1 block,N370S GC
O=C(O)c1cccc(N/N=C/c2cccc3ccccc23)c1,8%,-9%
CC(C)c1ccc(NC(=O)CSc2nc(=O)[nH]c3c2CCCC3)cc1,nt,-12%
CCOc1ccc(OCC)c(NC(=O)CNS(=O)(=O)c2cccs2)c1,4%,9%
COc1cc(OC)c(OC)cc1CNc1nnnn1C,nt,-1%
Cc1cc(C)cc(OCC(=O)Nc2ccc(N3CCOCC3)cc2N2CCOCC2)c1,4%,nt
CN(C)CCNC(=O)/C=C/c1cn(-c2ccccc2)nc1-c1cc2ccccc2oc1=O,2%,-15%
COc1ccc(C(=O)N2CCN(Cc3ccc(OC)c(OC)c3)CC2)cc1,nt,-1%
CC1(C)Cc2c(sc3nc(-c4ccccc4)oc(=O)c23)CO1,-3%,6%
COc1ccccc1-c1n[nH]c(=S)n1-c1ccccc1,-5%,0%
Cn1cc(CNC(=O)c2cc(COc3ccc4c(c3)CCCC4)on2)cn1,5%[56.1 µM],?
O=C(NCCCN1CCOCC1)c1csc2c1CCCC2,-4%,3%
COc1ccccc1C1C2=C(N=C3SCC(=O)N31)c1ccccc1CC2 (centres undefined),7%,7%
CC1(c2ccccc2)NC(=O)N(CC(=O)N2CCN(S(=O)(=O)c3cccs3)CC2)C1=O (centres undefined),3%,-1%
COc1ccc(-c2noc(CN(C)Cc3ccccc3)n2)cc1,nt,-9%
O=C(COc1ccc(/C=N/NC(=O)C(=O)N2CCCCCC2)cc1)Nc1ccccc1Cl,0%,0%
O=C1Nc2ccc(S(=O)(=O)NCc3ccccn3)c3cccc1c23,-12%,-2%

# Among those listed so far, twelve contain a COOH group:
SMILES,TDP1 block,N370S GC
O=C(O)CC(c1cccc(Cl)c1)n1cccc1 (centres undefined),5%,-14%
CC(Oc1ccc(Cl)cc1Cl)C(=O)Nc1ccc(OCC(=O)O)cc1 (centres undefined),3%,-7%
O=C(O)C1C2C=CC(C2)C1C(=O)NCc1ccco1 (centres undefined),-5%,0%
O=C(O)C1CCN(C(=O)c2scc3c2OCCO3)CC1,6%,2%
O=C(O)CC/C(=N/NC(=O)c1cccs1)c1ccccc1,3%,-1%
COc1cccc(C2c3[nH]c4ccccc4c3C[C@H]3C(=O)N(c4ccccc4C(=O)N4CCC[C@H]4C(=O)O)C(=O)N23)c1 (some centres undefined),nt,-17%
O=C(O)c1cccc(CN2C(=O)c3ccccc3C2=O)c1,nt,-1%
O=C(O)CCC(=O)Nc1ccc(NC(=O)c2ccc(Cl)cc2Cl)c(Cl)c1,0%,-6%
O=C(O)c1cc(S(=O)(=O)Nc2ccccc2C(=O)O)ccc1O,-6%,1%
CC1(C)S[C@H]2[C@@H](NC(=O)C(N)c3ccccc3)C(=O)N2[C@H]1C(=O)O (some centres undefined),?,-4%
Cc1nc(NC(=O)c2ccco2)sc1C(=O)O,nt,0%
O=C(O)c1cccc(N/N=C/c2cccc3ccccc23)c1,8%,-9%

# Given as labelled records: part of the list above.
COc1ccc(C(=O)N2CCN(Cc3ccc(OC)c(OC)c3)CC2)cc1
  TDP1 block: nt
  N370S GC: -1%
CC(C)c1ccc(NC(=O)CSc2nc(=O)[nH]c3c2CCCC3)cc1
  TDP1 block: nt
  N370S GC: -12%

# Source: PubChem BioAssay (National Center for Advancing Translational Sciences (NCATS))
